High-throughput results: PubChem, National Center for Advancing Translational Sciences (NCATS)
Sfp PPTase inh: Sfp phosphopantetheinyl transferase inhibition. Q9F4F7. Biochemical Sfp PPTase activity, qHTS. Potency, µM, for the others: max response, negative = inhibition, actives largely listed as inhibitors. 310,000 compounds, 3.5% hits; active means well fitted inhibition curve with a large enough effect; inconclusive means small, poorly fitted or top-dose-only effect, or another doubt; inactive means no such curve, though single readings can be large or run the other way;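 further: the enzyme is Sfp with the accession as filed and its product quenches rhodamine fluorescence; potency means the concentration at half of the fitted maximal effect; 0% = enzyme reaction without inhibitor and -100% = no enzyme wells; top concentration of the series not given in the record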
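Compounds were incubated with enzyme (final 15 nM) for 15 min at room temperature before substrate addition started the reaction. Fluorescence at 525 nm excitation, 598 nm emission was recorded immediately and after 30 minutes.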
gsp agonist: gsp mutant agonism | 340,000 compounds, 0.13% hits | gsp mutant cells, cAMP HTRF, 30 min; control for the full effect not named in the record | Potency, µM (highest dose often 76.9 µM), without a hit: at the top dose activation (cAMP increase), actives largely listed as activators; active = well fitted activation curve with a large enough effect; inconclusive = small, poorly fitted or top-dose-only effect, or another doubt; inactive = no such curve, though single readings can be large or run the other way; cell line not stated here;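 further: phosphodiesterase inhibitor Ro 20-1724 added with compounds to block cAMP breakdown; potency means the concentration at half of the fitted maximal effect; nearly all actives have a fitted effect of over 60% in size; about a fifth of the inactives were tested at one dose only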
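Cells stably selected in G418 were plated at 2000/well, grown 16-24 hr, then given compounds in DMSO with the PDE inhibitor […] (300 uM solution added) for 30 min at 37C; cAMP was read by HTRF.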
D2 potentiator: positive allosteric modulators of human D2 dopamine receptor. P14416. DiscoveRx D2 beta-arrestin cells, luminescence, 90 min; 100% = 57 uM dopamine signal. potentiation, % (test concentration not listed). 360,000 compounds, 0.23% hits. AID 624464; active = potentiation of 50% or more; inconclusive = 30% to 50%; inactive = 30% or less;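 further: compound concentration not given in the record; tested on top of an EC20 dose of dopamine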
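D2 cells co-treated with compound plus 50 nM dopamine (EC20) for 90 min at 37 deg C to detect potentiation. Beta-arrestin recruitment was read as enzyme-fragment luminescence after 1 h at ambient temperature. Full response was set by 57 uM dopamine.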
ClpP mod: qHTS Assay for Activators of ClpP | ATP-dependent Clp protease proteolytic subunit (Bacillus subtilis (strain 168)), P80244 | purified B. subtilis ClpP, FRET peptide cleavage, 20 min | Potency, µM (highest dose often 57.5 µM), for inactives: top-dose activity change, negative = active | 340,000 compounds, 1.9% hits | AID 651965, 2013; active = well fitted falling curve with a large enough effect; inconclusive = small, poorly fitted or top-dose-only effect; inactive = no such curve, though single readings can be large or run the other way; further: potency means the concentration at half of the fitted maximal effect; the source files actives as falling curves though it sought activators and does not explain the sign; nearly all actives have a fitted effect of over 65% in size; many hits overshoot -100%
Target sequence (P80244 whole entry, looked up): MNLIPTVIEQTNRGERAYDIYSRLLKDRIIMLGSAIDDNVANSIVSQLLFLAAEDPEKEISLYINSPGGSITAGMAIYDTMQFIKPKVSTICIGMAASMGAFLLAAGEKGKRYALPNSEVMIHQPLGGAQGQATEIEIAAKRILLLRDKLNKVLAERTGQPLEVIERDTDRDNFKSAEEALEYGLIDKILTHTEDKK
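ClpP 10 microg/mL final, pH 8 Tris/KCl buffer with BSA, glycerol, Tween-20; compound pinned in; FRET-FV substrate; RT 20 min; Ex320/Em430; ΔFRET vs ADEP 5.8 microM, DMSO, no enzyme.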
TRPV1 PAM: potentiators of human vanilloid receptor 1 (TRPV1). Q8NER1. TRPV1-expressing cells, Fluo-8 calcium influx, capsaicin EC20 potentiation; host cell line not named in the record; control for the full effect not named in the record. potentiation, % at 8.33 µM. 320,000 compounds, 0.02% hits; active means potentiation above 80%; inconclusive means 30% to 80%; inactive means below 30%; further: 0% is about no effect
Target sequence (Q8NER1 whole entry, looked up): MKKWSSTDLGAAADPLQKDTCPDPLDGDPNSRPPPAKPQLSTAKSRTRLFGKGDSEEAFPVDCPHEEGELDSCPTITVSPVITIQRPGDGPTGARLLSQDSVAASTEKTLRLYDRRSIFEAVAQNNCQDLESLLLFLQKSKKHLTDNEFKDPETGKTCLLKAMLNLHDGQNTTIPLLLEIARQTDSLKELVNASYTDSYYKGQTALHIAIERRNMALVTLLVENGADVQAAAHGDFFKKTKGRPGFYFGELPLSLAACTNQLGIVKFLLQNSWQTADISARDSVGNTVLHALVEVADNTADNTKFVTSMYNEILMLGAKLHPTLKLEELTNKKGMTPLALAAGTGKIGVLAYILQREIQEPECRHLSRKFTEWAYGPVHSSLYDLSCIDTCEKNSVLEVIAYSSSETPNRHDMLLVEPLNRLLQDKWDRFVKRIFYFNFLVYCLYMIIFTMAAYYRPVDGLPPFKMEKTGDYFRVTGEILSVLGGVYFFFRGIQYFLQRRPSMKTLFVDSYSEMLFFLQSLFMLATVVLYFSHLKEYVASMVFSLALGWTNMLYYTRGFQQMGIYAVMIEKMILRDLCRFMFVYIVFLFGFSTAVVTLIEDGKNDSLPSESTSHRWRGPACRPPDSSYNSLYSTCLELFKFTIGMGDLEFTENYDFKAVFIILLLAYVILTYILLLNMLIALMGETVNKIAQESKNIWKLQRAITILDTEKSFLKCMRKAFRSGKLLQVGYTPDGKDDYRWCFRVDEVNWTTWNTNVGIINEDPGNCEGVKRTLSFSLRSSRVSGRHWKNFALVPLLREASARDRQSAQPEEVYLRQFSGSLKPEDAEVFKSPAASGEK
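Fluo-8 calcium influx in TRPV1-expressing cells, kinetic read (ex 480/em 520 nm). Compound added and read 3 min for agonist activity, followed by capsaicin at EC20 final and 2 min further read for enhancement.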
gsp antagonist: gsp mutant antagonism; Potency, µM (doses to about 76.9 µM), for the others: at the highest dose activity change, negative = inhibition, usual class: inhibitors; 340,000 compounds, 0.4% hits; gsp-mutant cells, cAMP HTRF, 30 min; control for the full effect not named in the record; active = falling curve of any shape with a large fitted effect; inconclusive = falling curve, mostly with a smaller effect; inactive = flat or rising curve; cell line not stated here;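 further: intracellular cAMP measured with PDE inhibitor Ro 20-1724 present during compound exposure; potency means the concentration at half of the fitted maximal effect; on the % scale 0 is the no-effect control and ±100 the full control effect; nearly all actives have a fitted effect of over 65% in size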
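G418-selected cells were plated in DMEM/10% FBS for 16-24 h at 37C, then treated with compounds plus the PDE inhibitor […] (300 uM solution added) for 30 min at 37C. Intracellular cAMP was measured by HTRF after 30 min lysis at room temperature.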
Menin MLL FP FL: displaces fluorescein MLL peptide from human menin. Fluorescence polarization, fluorescein-MLL peptide displacement from menin. 290,000 tested, under 10 active. FP activity change, % at 61.4 µM; inconclusive = falling polarisation curve, or a change in total fluorescence; inactive = total fluorescence flat and polarisation flat or rising; no compound was filed as active; the % refers to the polarisation; negative = inhibition;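 further: % of control where 0% means no effect; inhibitors lower the polarisation; unlabelled MLL peptide was the positive control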
An asterisk follows results filed as active; u = inconclusive; x = no result given; & = joins results of further samples; [ ] = another dose, or the depositor's remark.

Values run as follows: Sfp PPTase inh	gsp agonist	D2 potentiator	ClpP mod	TRPV1 PAM	gsp antagonist	Menin MLL FP FL
COc1ccc(OC)c(N(C(=O)c2snc(C(N)=O)c2N)C(C(=O)NCC2CCCO2)c2ccc3ncccc3c2)c1 (stereo unspecified)
 : 4%	6%[15.4 µM]	4	x	-15	x	-4.8
COCCNc1nc2nonc2nc1N(C)Cc1cccc2cnccc12
 : 7%	-6%[15.4 µM]	1	x	12	-9%	2.6
CC(=O)CCS(=O)(=O)c1ccc(C)c(C)c1
 : -3%	-30%	16	0.1%	16	10%	0.1
CC(C)N1C(=O)CCN(C=O)c2ccccc21
 : 25%	6%	-4	-0.1%	-4	12%	-3.6
CCOc1ccccc1/C=C/c1onc(C)c1S(=O)(=O)N1CCC(C(=O)NC(C)C)CC1
 : 8%	11%	-11	3.2%	-8	-14%	-0.2
COc1cc(/C=C(\C#N)c2nc3ccc(C)cc3[nH]2)c([N+](=O)[O-])cc1OC
 : -62%	-12%	4	-1.1%	16	25%	0.6
Cc1cc(=O)[nH]c2c1c(C)nn2-c1ccccc1
 : 2%	17%	-4	-24%	9	6%	3.6
CSc1ccccc1C(=O)Nc1cc([N+](=O)[O-])ccc1C
 : -13%	10%	-3	x	9	-9%	-4.4
COc1ccc(O)c(/C=N/N2CCOCC2)c1
 : 22%	-1%[15.4 µM]	3	x	-17	8%	3.7
O=[N+]([O-])c1cc(Br)c2c(c1)CCN2
 : x	-28%	-18	0.9%	x	x	x
Cn1c(=O)oc2cc(S(=O)(=O)CCC(=O)N3CCN(c4ccccc4)CC3)ccc21
 : 11%	-19%	-1	0.5%&2.1%	15	-10%	x
COc1ccc(F)cc1-c1nc(N)nc(N)n1
 : x	x	-5	3.9%	-2	14%	x
Cn1c(=O)cc(-c2ccccc2)c2ccccc21
 : -1%	-7%	-7	u	-4	-13%	-3.2
CCOC(=O)C(C)(C)Oc1ccc(Cl)cc1
 : 19%&22%&6%&18%	x	-4	0.0%&-5.0%	9	13%	1.8&-2.2&-0.3&1.7
CCCCNC(=O)COC(=O)c1ccc(NS(=O)(=O)c2ccc3c(c2)OCCO3)cc1
 : 2%	-31%[inhibitor]	-12	-1.5%	5	-17%	2.8
C=CCn1c(=NC(=O)c2cc(-c3cccs3)nc3ccccc23)sc2cc(S(N)(=O)=O)ccc21
 : 7%	11%[15.4 µM]	-14	23%	6	-2%	u
CC(=O)Nc1ccc(NC(=O)C(C)OC(=O)c2ccc(-n3cnnn3)cc2)cc1 (stereo unspecified)
 : x	3%	4	-5.7%	-4	1%	x
Cc1ccc(CN2CCN(CCCc3ccccc3)CC2CCO)cc1 (stereo unspecified)
 : -7%	1%	-23	0.5%	0	14%	-0.5
CCC1CCc2sc(C(=O)N3CCCN(C)CC3)cc2C1 (stereo unspecified)
 : 9%	6%	-20	-0.2%	13	11%	4.2
Cc1cc(NC(=O)NC(=O)c2ccccc2NC(=O)C(C)N)ccc1Oc1ncc(Br)cn1 (stereo unspecified)
 : x	-3%	10	-2.9%	x	4%	x
COc1ccc(Cc2noc(CN3CCN(C4CCc5ccccc5C4)CC3)n2)cc1OC (stereo unspecified)
 : 4%	8%[15.4 µM]	-24	x	-9	-12%	0.1
CC(=O)c1c(OC(=O)c2ccc(C)cc2)c2ccccc2n1C
 : -11%	u	-17	-0.3%	-11	-15%	-1.5
CC(=O)c1ccc(OCC(O)CNCc2ccc3c(c2)OCO3)cc1 (stereo unspecified)
 : 6%	3%[15.4 µM]	-8	x	0	-4%	-1.3
Cc1cc(C)nc(SCc2nc3ccccc3n2C)n1
 : 2%	u	-7	0.2%	7	11%	-0.8
Cc1ccc(S(=O)(=O)N2CCCCC2)cc1NC(=O)Cn1ccc(C(F)(F)F)n1
 : 11%	-13%[15.4 µM]	5	-0.9%	-1	8%	-0.5
Fc1ccc(Nc2ncnc3sc4c(c23)CCC4)cc1
 : -14%	-3%	-8	1.9%	7	-10%	2.5
Cc1ncoc1C(=O)N1CCCC(C(=O)c2ccc(-c3ccccc3)cc2)C1 (stereo unspecified)
 : -13%	-82%[inhibitor]	-7	-0.9%	-7	-8%	-2.2
COC(=O)c1ccc(COc2ccccc2/C=N/Nc2cccc(C(=O)O)c2)cc1
 : 1%	-3%	-2	-1.7%	4	-27%	4.5
CSC1=C(C#N)C(c2ccc(Cl)cc2)C2=C(CC(C)(C)CC2=O)N1 (stereo unspecified)
 : -22%	u	-22	-3.8%	-13	u	-0.3
COc1ccc(S(=O)(=O)N(C)c2ccc(C(=O)N3CCN(c4ccccc4)CC3)cc2)cc1OC
 : -14%	-2%[15.4 µM]	2	-6.1%	-32	7%	x
Cn1nccc1C(=O)Nc1nnc(C2CC2)s1
 : 11%	u	-9	0.8%	-1	-4%	x
COc1ccc(NC(=O)CSc2nnnn2C)cc1S(=O)(=O)N1CCCCC1
 : x	-22%[15.4 µM]	11	0.2%	-15	6%	x
Cc1ccc(SCc2c(C(=O)N/N=C/c3ccccc3)nnn2-c2nonc2N)cc1
 : 0%	9%[15.4 µM]	1	-6.8%	5	-31%	5.5
Cc1ccc[n+](CC(=O)Nc2cc(C(F)(F)F)ccc2Cl)c1
 : 6%	-32%[inhibitor]	-36	0.8%	u	7%	3.1
NS(=O)(=O)c1ccc(O)c(NC(=O)c2ccc([N+](=O)[O-])cc2)c1
 : 5%	-1%	-9	x	-10	-4%	-3.3
COc1ccc(N=C2NC(=O)/C(=C\c3ccco3)S2)cc1
 : u	-20%[15.4 µM]	-8	x	-4	-8%	u
CC(NC(=O)CCC(=O)c1ccccc1)c1ccc(F)cc1 (stereo unspecified)
 : x	-6%[15.4 µM]	-18	x	-9	2%	x
C/C(=N\NS(C)(=O)=O)c1ccc(C)cc1
 : 10%	u	-2	-0.6%	-2	4%	5.0
CCN1CCN(CCNC(=O)c2cc(Cl)c(NC(=O)C3=C(C)OCCS3)cc2OC)CC1
 : 9%	22%	-7	0.8%	-4	2%	0.9
COc1ccc(CNC(=O)COC(=O)c2c[nH]c(=O)[nH]c2=O)cc1OC
 : 10%	3%	1	1.5%	10	-1%	2.7
O=C(CC1SC(=Nc2ccc(OC(F)F)cc2)N(CCN2CCOCC2)C1=O)Nc1ccc(F)cc1F (stereo unspecified)
 : 3%	-15%	-8	x	29	4%	-0.3
CCn1cc(C(=O)NCc2ccco2)c(=O)c2cc(S(=O)(=O)N3CCC(C)CC3)ccc21
 : u	12%	-23	0.9%	5	-23%	-1.1
O=C(NCc1ccccn1)C1CCN(S(=O)(=O)c2ccccc2)CC1
 : 17%	-1%	-9	1.9%	20	8%	-0.5
CC1CCN(CC(O)COc2ccc(F)cc2)CC1 (stereo unspecified)
 : -5%	1%	-1	0.7%	5	11%	1.2
Cc1ccc2cc(CN(CC3CCCO3)S(=O)(=O)c3ccccc3)c3nnnn3c2c1 (stereo unspecified)
 : 14%	-1%	-9	-2.1%	13	-19%	-0.1
Cc1cc(C)nc(NS(=O)(=O)c2ccc(N3Cc4ccccc4C3=O)cc2)n1
 : 1%	u	-4	-6.7%	-5	-8%	3.8
CC(C)(C)OC(=O)N(Cc1ccccc1)Cc1ccccc1OCc1cccc(NC(=O)C2CCC2)c1
 : x	x	0	-0.7%	x	-15%	x
COCCCNC(=O)c1cc(S(=O)(=O)NCCCN2CCCC2=O)ccc1Cl
 : x	-5%	-8	-6.4%	x	5%	x
CS(=O)(=O)N1CCC(C(=O)N2CCN(c3ccccc3)CC2)CC1
 : 3%	-62%	0	x	-20	2%	0.8
O=S(=O)(Nc1ccc(F)cc1)c1ccc(S(=O)(=O)N2CCOCC2)cc1
 : x	0%	3	-0.4%	x	9%	x
Cc1cc(C)nc(N2CCC(C(=O)NCCc3ccc(F)cc3)CC2)n1
 : 1%	-8%	-14	u	13	12%	2.7
CCC1CCCCN1C(=O)CSc1nnc(-c2ccc(Cl)s2)o1 (stereo unspecified)
 : -7%	-20%	-5	-11%	3	-1%	-0.9
CCCn1c2ccccc2c2cnn(CC(=O)NCCN(C)C)c(=O)c21
 : 11%	-5%	-15	3.3%	8	5%	0.3
Cc1cc(=O)c2c(O)c(O)ccc2o1
 : 79µM*	11%	26	-11%	-2	-4%	-6.2
C=CCn1c(SCC)nc(O)cc1=O
 : 9%	-30%	-6	0.7%	-2	-8%	3.3
Cc1noc(NS(=O)(=O)c2ccc(N/C=C\C(=O)c3ccc(F)cc3)cc2)c1C
 : -15%	17%[15.4 µM]	-5	x	3	u	9.9
CCOC(=O)c1c(NC(=O)C(=O)N/N=C/c2ccccc2O)sc2c1CCCCC2
 : 4%	24%	-5	-15%	9	8%	14
COc1ccc(CCC(=O)N2CCN(S(=O)(=O)c3ccc(OC)cc3)CC2)cc1
 : x	-30%	1	0.3%	-16	1%	x
O=C(Nc1ccccc1C(=O)O)c1ccc2c(c1)C(=O)N(c1cccc([N+](=O)[O-])c1)C2=O
 : u	17%	6	x	2	u	-5.0
C[C@@H]1CC=C[C@H]2[C@H]1C(=O)N(Cc1ccccc1)[C@H]2c1ccc(F)c(/C=C/c2ccccc2)c1
 : 9%	-14%	-6	u	5	-1%	-7.8

Continued:
Values run as follows: Sfp PPTase inh	gsp agonist	D2 potentiator	ClpP mod	TRPV1 PAM	gsp antagonist	Menin MLL FP FL
CC1CCc2c(sc(NC(=O)CCC(=O)O)c2C(=O)NC2CC2)C1 (stereo unspecified)
 : 8.9µM*	6%	-6	-2.8%	-9	u	x
O=C(Nc1nc(-c2ccccc2)nc2ccccc12)c1ccc(F)cc1
 : 1%	6%[15.4 µM]	-8	x	13	17%	-3.3
COc1ccc(C(CNC(=O)c2ccc3c(c2)C(=O)N(CCC(C)C)C3=O)N2CCOCC2)cc1 (stereo unspecified)
 : -4%	30%	-9	1.0%	2	0%	2.3
Cc1ccc(CNC(=O)c2ccc(N3CCC4(CC3)CC(c3ccccc3)=NO4)c(NC(=O)c3ccc(Cl)c([N+](=O)[O-])c3)c2)cc1
 : x	-33%[inhibitor]	12	1.9%	-25	-2%	x
